VDR inh = blocks the human vitamin D receptor. P11473. AID 504847. Potency, µM, without a hit: max response, negative = inhibition, usual class: inhibitors. 0.93% of 400,000 active. VDR-SRC2-3 peptide fluorescence polarization, 2 h; active means well fitted inhibition curve with a large enough effect; inconclusive means small, poorly fitted or top-dose-only effect, or another doubt; inactive means no such curve, though single readings can be large or run the other way; further: series mostly up to about 120 µM
Target sequence (P11473 whole entry, looked up): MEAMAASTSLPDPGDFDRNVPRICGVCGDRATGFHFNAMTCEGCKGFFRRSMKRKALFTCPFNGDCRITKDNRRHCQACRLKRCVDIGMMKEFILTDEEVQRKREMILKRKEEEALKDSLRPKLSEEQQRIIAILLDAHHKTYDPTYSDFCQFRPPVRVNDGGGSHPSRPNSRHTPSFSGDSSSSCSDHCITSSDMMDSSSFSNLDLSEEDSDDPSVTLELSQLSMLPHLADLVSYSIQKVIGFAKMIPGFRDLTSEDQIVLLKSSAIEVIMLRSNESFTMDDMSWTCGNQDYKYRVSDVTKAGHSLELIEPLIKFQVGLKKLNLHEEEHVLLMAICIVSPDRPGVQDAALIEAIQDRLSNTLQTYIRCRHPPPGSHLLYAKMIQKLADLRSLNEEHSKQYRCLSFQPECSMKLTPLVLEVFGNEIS
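Two reagent solutions held at 4 deg C in the dark were dispensed, compounds pinned at 23 nl, and the mixture incubated 2 h at room temperature. Read-out: fluorescence polarization of VDR–SRC2-3 peptide binding.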
Starred values were filed as active, the others as inactive; ? = inconclusive; & = joins results of further samples. On the % scale 0 is the no-effect control and ±100 the full control effect; potency means the concentration at half of the fitted maximal effect. A portion of the library; count on the stated rates, not on these rows.

Compound | VDR inh
O=C(NC(=O)c1c(Cl)cccc1Cl)Nc1ccc(Oc2cccnc2)nc1 | -3%
Cc1cccc(N(C(=O)CCC(=O)Nc2ccccn2)C(C(=O)NC(C)C)c2ccc(F)cc2)c1 (centres undefined) | 0%
Cc1ccc([C@@H]2[C@@H]3C(=O)N(C)C(=O)[C@@H]3[C@]3(Cc4ccccc4)C(=O)N(Cc4ccccn4)CC(=O)N23)o1 | 4%
CCCOc1ccc(C(=O)Nc2cc(S(=O)(=O)N3CCOCC3)ccc2N2CCN(CC)CC2)cc1OC | -24%
Cc1cccc(NC(=O)c2cc3c(=O)n4cccc(C)c4nc3s2)c1C | 0%
CC1CCCC(C)N1CC(O)COCC1COc2ccccc2O1 (centres undefined) | -9%
CCOc1ccc(-c2nc(-c3cccnc3)no2)cc1 | -17%
Cc1cc(Cl)ccc1OCCCC(=O)OCC(=O)c1c(N)n(C)c(=O)n(C)c1=O | 9%
Cc1ccc(C)c(NC(=O)COc2coc(CN3CCc4ccccc43)cc2=O)c1 | -7%
CN1CCN(C(=O)c2ccc3c(=O)n(CCc4ccccc4)c(=S)[nH]c3c2)CC1 | 6%
Cc1ccc2nc(N(CCN3CCOCC3)C(=O)CCS(=O)(=O)c3ccccc3)sc2c1 | 1%
CCCCCC/C=N/Nc1nnc(Cc2ccc(OC)c(OC)c2)c(=O)[nH]1 | 20%
CCOc1cc(CNC(=O)CSc2n[nH]c(-c3ccccc3)n2)cc(OCC)c1OCC | 9%
CCN(C(=O)CN1C(=O)NC2(CCCc3ccccc32)C1=O)c1ccc(F)cc1 (centres undefined) | -6%
CCN1CCN(C(C)CCc2ccccc2)CC1 (centres undefined) | 1%
Cc1cc(C(=O)CN2C(=O)NC(CC(C)C)C2=O)c(C)n1C1CC1 (centres undefined) | -12%
O=C(CCNS(=O)(=O)c1ccccc1C(F)(F)F)N1CCN(S(=O)(=O)c2cccc(Cl)c2)CC1 | 2%
CCOC(=O)c1cnc2nc(SC)nn2c1N | -7%
O=C(CCCOc1cccc(Br)c1)NC1CCC(O)CC1 (centres undefined) | 24%
COC(=O)C1=C(C)N(CCc2ccc(OC)c(OC)c2)C(=O)/C1=C\N(C)C | ?
COc1ccc(CC(=O)N2CCN(c3ccccc3OC)CC2)cc1 | -2%
CCC(=O)Nc1ccc(C(=O)COC(=O)C(CCSC)NC(=O)COc2ccccc2)cc1 (centres undefined) | -9%
O=C(Oc1ccc(/C=N/Nc2nc(N3CCCCC3)nc(N3CCCCC3)n2)cc1)c1ccco1 | -4%
CC(=O)c1cccc(NC(=O)/C(=C\c2ccco2)NC(=O)c2ccco2)c1 | 3%
Cn1ncc(S(=O)(=O)Cc2ccccc2)c(Cl)c1=O | ?

Next part, starting with the last 3 of the part before.
Compound | VDR inh
O=C(Oc1ccc(/C=N/Nc2nc(N3CCCCC3)nc(N3CCCCC3)n2)cc1)c1ccco1 | -4%
CC(=O)c1cccc(NC(=O)/C(=C\c2ccco2)NC(=O)c2ccco2)c1 | 3%
Cn1ncc(S(=O)(=O)Cc2ccccc2)c(Cl)c1=O | ?
CCOc1ccccc1N(CC(=O)Nc1ccccc1C(=O)OC)S(C)(=O)=O | 11%
CO[C@H]1CC[C@@]2(C)[C@@H](CC[C@@H]3[C@@H]2CC[C@@]2(C)[C@H]3C[C@H](C(=O)N[C@@H](CCCN=C(N)N)C(=O)NCC(=O)N[C@@H](CC(=O)O)C(N)=O)O[C@]23CCCO3)C1 | -9%
COc1ccc(C2/C=C\CN(C(=O)c3ccc(C)cc3)CC(=O)N2Cc2ccc(F)cc2)cc1 (centres undefined) | -16%&10%
CCC(=O)N1CCc2cc(Br)cc(S(=O)(=O)N3CCN(c4ccccc4OC)CC3)c21 | -27%
CCCCNC(=O)CCn1c(=O)c2cccn2c2cccnc21 | 6%
Cc1ccc(NC(=O)CSCC(=O)N(C)CC(=O)Nc2cccc3ccccc23)cc1 | 8%
CCn1nc(NS(=O)(=O)c2ccc(NC(C)=O)cc2)c2cc3ccc(C)cc3nc21 | -4%
CCc1c(C(=O)OCc2ccccc2)[nH]c(C)c1C | 4%
Cc1cccn2c(=O)c3cc(C(=O)NC4CCCC4)c(=N)n(CC4CCCO4)c3nc12 (centres undefined) | -10%
CC(C)CC(=O)c1c[nH]c(C(=O)NCCCn2ccnc2)c1 | -12%
CC(=O)N=C(N)Sc1nc2ccccc2[nH]1 | 7%
CCN(C(=O)CSc1nnc2ccccn12)C1CCS(=O)(=O)C1 (centres undefined) | -9%
CCOC(=O)N1CCC(NC(=O)CCC(=O)c2ccccc2)CC1 | 7%
CC(=O)Oc1c(-c2ccco2)oc2ccccc2c1=O | -9%
O=C(Nc1c[nH]c(=O)[nH]c1=O)c1ccc([N+](=O)[O-])cc1 | -12%
CCOC(=O)c1ccc(Nc2nc(C)cc(=O)[nH]2)cc1 | -2%
CCCn1c2ccccc2c2cnn(CC(=O)Nc3cc(OC)c(OC)c(OC)c3)c(=O)c21 | -2%
Cn1c(CN2CCCCC2)nc2cc(NC(=O)c3ccc(F)cc3)ccc21 | -7%
Cc1ccccc1-n1ccnc1SCC(=O)NC1CCCC1 | -6%
COc1ccc(-c2csc3ncnc(N4CCN(S(=O)(=O)c5cccc(F)c5)CC4)c23)cc1 | -11%
CN(CC(=O)Nc1ccc(OC(F)F)cc1)S(=O)(=O)/C=C/c1ccccc1 | -7%
CC(=O)N1CN(S(=O)(=O)c2ccc(C)cc2)CC1C (centres undefined) | 2%
O=C(CSc1nc2ccccc2c(=O)n1CCCO)N1CCc2ccccc21 | -4%
S=c1[nH]nc(-c2cccc(Cl)c2)n1/N=C/c1ccc(-c2ccccc2Br)o1 | -4%
O=C(COC(=O)CNS(=O)(=O)c1ccc(F)c(F)c1F)NC1CC1 | 4%

Copied from the list:
VDR inh with `CCOc1cc(CNC(=O)CSc2n[nH]c(-c3ccccc3)n2)cc(OCC)c1OCC` = 9%
VDR inh with `O=C(NC(=O)c1c(Cl)cccc1Cl)Nc1ccc(Oc2cccnc2)nc1` = -3%

Arranged by the number under VDR inh (rising): three from the list above.
Compound | VDR inh
Cc1cccn2c(=O)c3cc(C(=O)NC4CCCC4)c(=N)n(CC4CCCO4)c3nc12 (centres undefined) | -10%
CCOC(=O)c1ccc(Nc2nc(C)cc(=O)[nH]2)cc1 | -2%
CC(=O)N1CN(S(=O)(=O)c2ccc(C)cc2)CC1C (centres undefined) | 2%

Later entries:
Compound | VDR inh
Nc1ncnc2c1ncn2[C@@H]1O[C@H](CNC(=O)[C@@H](N)Cc2ccc(C(F)(F)F)cc2)[C@@H](O)[C@H]1O | 3%
Cc1ccc(S(=O)(=O)Nc2cc3c4c(c2)CCC(=O)N4CCC3)cc1 | 0%
CCOC(=O)c1nn(-c2ccc(OC)cc2)c(=O)c2c(N)scc12 | 18µM*
Nc1ccc2nc(SCc3ccccc3F)sc2c1 | -18%
CC(C)c1ccc(OCC(=O)Nc2ccc(S(=O)(=O)Nc3ccccn3)cc2)cc1 | -16%
CSC1=NCCN1C(=O)C12CC3CC(CC(C3)C1)C2 | -21%
COc1ccc(Cl)cc1C(=O)NCCCSc1ccccc1 | -12%
CN(C)C(=O)CN1C(=O)NC(c2ccccc2)(c2ccccc2)C1=O | 11%
Cc1ccc(CNC(=O)c2ccc(CSCc3ccc(Cl)cc3)o2)cc1 | 11%
COc1ccc(-c2csc(NC(=O)CSc3nnc(Nc4ccccc4C)s3)n2)cc1 | 17%
N/C(=N\OC(=O)c1cccc2ccccc12)c1ccccn1 | 21%
CCOC(=O)c1ccc(NC(=O)CSc2nc(C)cc(=O)[nH]2)cc1 | -5%
CCOC(=O)c1sc2ccccc2c1S(=O)(=O)N1CCN(c2cccc(C)c2C)CC1 | -2%
O=C(NN1CCOCC1)c1ccccc1F | -1%
Cn1nc(C(=O)OCC(=O)Nc2ccccc2[N+](=O)[O-])c2ccccc2c1=O | 9%
COc1ccccc1NC(=O)N1c2ccccc2NC(=O)CC1C (centres undefined) | -5%
CN(C)C(=O)C[n+]1cccc(/C=N/O)c1 | 23%
CC1=C([N+](=O)[O-])C(c2ccccc2C(F)(F)F)NC(=O)N1C (centres undefined) | 0%
CC(C)(C)c1nc(-c2ccccc2)nc2c1OCCC2 | 9%
CCOC(=O)COc1ccc(Br)cc1/C=C1\SC(N)=NC1=O | -9%
Cc1ccc(S(=O)(=O)N2CCN(S(C)(=O)=O)C2C)cc1 (centres undefined) | -17%
Cc1nc(COc2ccc(C(=O)Nc3ccccc3N3CCOCC3)cc2)cs1 | 20%
CCC1CCCCN1C(=O)CCS(=O)(=O)c1cc2c(cc1C)NC(=O)CO2 (centres undefined) | 4%
O=C(O)CSc1c2c(nc3cc(C(=O)Nc4cccc(C(F)(F)F)c4)ccc13)CCC2 | -7%
Cc1ccc(SCC(=O)OCC(=O)NCC2CCCCC2)cc1C | -18%
C=C(C)Cn1c(-c2cccs2)n[nH]c1=S | -22%
Cc1cc(NC(=O)Cn2c(C)nc3ccccc3c2=O)ccc1Br | -1%
CCOC(=O)CC/C(C)=N\N=C1\SC(CC(=O)O)C(=O)N1c1ccccc1 (centres undefined) | 5%
Cc1ccc(-c2noc(-c3cccnc3NCc3ccco3)n2)cc1 | 24%
CCOc1ccc(N2CC(C(=O)Nc3ccccc3F)CC2=O)cc1 (centres undefined) | 10%
C#CCSc1[nH]c(=O)cc(C)c1C#N | 6%
CCCCNC(=O)CSc1nc2n[nH]c(C)c2c(=N)n1-c1cccc(Cl)c1C | 4%&12%
Cc1cccc(CSc2ncc(CO)n2C)c1 | -8%
Cc1ccc(Nc2ncnc3sc(C)c(C)c23)cc1 | 3%
CCOC(=O)N1CCN(CCC(=O)c2ccc(Cl)cc2)CC1 | 35µM*
CN(C(=O)CN1C(=O)/C(=C/c2ccc(Cl)cc2)SC1=S)C1CCS(=O)(=O)C1 (centres undefined) | 5%
CC1CN=C(N(C(=O)Nc2ccccc2)c2ccc(S(=O)(=O)N3CCOCC3)cc2)S1 (centres undefined) | 2%
O=C(COC(=O)c1cn(-c2ccccc2)nc1-c1cccnc1)NC1CC1 | -19%
Cc1ccc(CN(Cc2ccco2)C(=O)COc2ccc(C)c(C)c2)cc1 | 10%
O=c1oc2ccccc2n1CCc1ccccc1 | -8%
CC1CCCCN1C(=O)CSc1nc2ccccc2nc1Cc1ccc(Cl)cc1 (centres undefined) | 5%
CC(=O)NC(Cc1c[nH]c2ccccc12)C(=O)N1CCN(S(=O)(=O)c2ccccc2)CC1 (centres undefined) | -12%
Nc1nc(CSC(=S)N2CCOCC2)nc(Nc2ccc(F)cc2)n1 | -4%
O=C(Nc1ccc(Cl)c(Cl)c1)C1C2C=CC3(O2)C1C(=O)N(CCN1CCCCC1)C3C(=O)NC1CCCCC1 (centres undefined) | 26%
Cc1ccc(S(=O)(=O)N2CCOCC2)c(C)c1-n1cnnn1 | -9%
COCCCNC(=O)C1CCN(c2nn3cc(-c4ccc(F)cc4)nc3s2)CC1 | 8%
Cc1ccc(N(C)C(=O)CN2C(=O)CCc3cc(S(=O)(=O)N4CCOCC4)ccc32)cc1 | -6%
Cc1[nH]c2ccc(C(=O)OC(C)C(=O)NCc3ccccc3)cc2c1C (centres undefined) | -15%
CCOC(=O)C[C@H]1c2ccccc2S(=O)(=O)N1c1cccc(OC)c1 | 1%
NS(=O)(=O)c1ccc(CNC(=O)/C=C/c2ccc(Cl)c(Cl)c2)cc1 | -26%

VDR inh: what is marked active above.
Compound | VDR inh
CCOC(=O)c1nn(-c2ccc(OC)cc2)c(=O)c2c(N)scc12 | 18µM*
CCOC(=O)N1CCN(CCC(=O)c2ccc(Cl)cc2)CC1 | 35µM*

(more compounds)
Compound | VDR inh
O=C(NCC(c1ccco1)S(=O)(=O)c1ccc(Cl)cc1)c1ccc(C(F)(F)F)cc1 (centres undefined) | -13%
CC(OC(=O)c1ccccc1)C(=O)NCc1ccco1 (centres undefined) | -14%
CCOC(=O)c1ccc2c(c1)NC(=O)C(N1CCN(c3ccc(OC)cc3)CC1)S2 (centres undefined) | 5%
Cc1ccc(C(=O)Nc2cccnc2)cc1S(=O)(=O)N1CCCCC1 | ?
OCCNc1nc(N2CCN(Cc3ccccc3)CC2)nc2ccccc12 | -3%
COc1cccc(C(=O)Nc2cc(OC)ccc2NC(=O)c2ccco2)c1 | -3%
CCc1ccc(N2CC34C=CC(O3)C(C(=O)OC(C)C)C4C2=O)cc1 (centres undefined) | -2%
COc1ccc(CC(=O)NCc2ccc3c(c2)CCN3C(C)=O)cc1OC | 11%
CC(C)Oc1cccc(C(=O)C2CCCN(Cc3cnc(N4CCCC4)s3)C2)c1 (centres undefined) | -6%
COc1ccc(N2CCN(c3c4c(nc5nncn35)CCC4)CC2)cc1 | 13%
CN(C)S(=O)(=O)c1ccc2nnn(OCC(=O)NC3CCS(=O)(=O)C3)c2c1 (centres undefined) | -22%
CNS(=O)(=O)c1cc(-c2nnc(Nc3ccc(CC(N)=O)cc3)c3ccccc23)ccc1C | 6%
COc1ccc(NC(C)C(=O)N2CCN(Cc3ccccc3)CC2)cc1 (centres undefined) | -13%
Cc1ccc(OCC(=O)N/N=C/C=C/c2ccco2)cc1 | ?
COc1ccc(S(=O)(=O)NCC(=O)Nc2cccc(C)c2C)cc1OC | 2%
O=C(Cn1nc(C(=O)O)c2ccccc2c1=O)Nc1cc(S(=O)(=O)N2CCCCC2)ccc1Cl | 4%

Screens from PubChem BioAssay.
